Screening data: PubChem, Vanderbilt University
GIRK2 act: opens human GIRK2 potassium channels; calls only for hits at 25 µM; HEK293-GIRK2 thallium flux, Thallos fluorescence; actives 0.05% (n = 63,000);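 active = among the strongest 0.2% of first-round signals and kept after retests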;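 also: first round at about 10 µM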
Target sequence (P48051 whole entry, looked up): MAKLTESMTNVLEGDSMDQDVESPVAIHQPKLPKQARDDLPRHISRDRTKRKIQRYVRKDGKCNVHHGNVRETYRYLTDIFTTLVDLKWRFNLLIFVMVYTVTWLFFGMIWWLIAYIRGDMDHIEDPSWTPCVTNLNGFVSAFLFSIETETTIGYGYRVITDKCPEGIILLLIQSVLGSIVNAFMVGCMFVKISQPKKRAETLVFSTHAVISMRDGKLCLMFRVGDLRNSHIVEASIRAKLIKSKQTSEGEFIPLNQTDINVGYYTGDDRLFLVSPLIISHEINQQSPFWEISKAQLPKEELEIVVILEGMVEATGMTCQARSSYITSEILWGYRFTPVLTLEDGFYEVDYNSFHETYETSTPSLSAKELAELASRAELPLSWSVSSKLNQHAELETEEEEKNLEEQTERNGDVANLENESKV
Calls only. Not all compounds are listed, so the mix of outcomes need not match the whole.

The opening 11 compounds (preview)
Results for COc1ccc(CC(C)(O)CNC(=O)C(=O)Nc2cc(Cl)ccc2OC)cc1 (centres undefined) ?
GIRK2 act: inactive

What do the screens show for `C=C(C)COc1ccc(-c2nc(N)ncc2-c2ccccc2)c(O)c1`?
GIRK2 act: inactive

What do the screens show for `Cc1cc(N2C(=O)C(O)=C(C(=O)c3ccc(C)o3)C2c2cccc([N+](=O)[O-])c2)no1` (centres undefined)?
GIRK2 act: inactive

How did Cc1nc(-c2nnc(NC(=O)c3ccc4ncsc4c3)o2)cs1 do in these assays?
GIRK2 act: inactive

What do the screens show for `O=C(c1ccccc1Cl)N1CCC2(CC1)OCCCO2`?
GIRK2 act: inactive

Results for CCOc1ccc(S(=O)(=O)NCCOc2ccc(F)cc2)c(OCC)c1 ?
GIRK2 act: inactive

What do the screens show for `O=C(Cn1nc2c(N3CCOCC3)nccn2c1=O)Nc1cccc(C(F)(F)F)c1`?
GIRK2 act: inactive

How did CCOc1ccccc1N1CCN(S(=O)(=O)c2n[nH]c(C)c2C(=O)OC)CC1 do in these assays?
GIRK2 act: inactive

What do the screens show for `O=C1CCCN1c1ccc(Cn2cccc(-c3nc(-c4ccsc4)no3)c2=O)cc1`?
GIRK2 act: inactive

How did C/C=C/C(=O)Nc1ccc(-n2nnc(C(=O)N3CCCC3)n2)cc1 do in these assays?
GIRK2 act: inactive

How did O=C(Nc1ccc(F)cc1)N1CCC(Cn2ccnc2-c2ccccc2)CC1 do in these assays?
GIRK2 act: inactive

The listing, previewed entries included:
Results for COc1ccc(CC(C)(O)CNC(=O)C(=O)Nc2cc(Cl)ccc2OC)cc1 (centres undefined) ?
GIRK2 act: inactive

What do the screens show for `C=C(C)COc1ccc(-c2nc(N)ncc2-c2ccccc2)c(O)c1`?
GIRK2 act: inactive

What do the screens show for `Cc1cc(N2C(=O)C(O)=C(C(=O)c3ccc(C)o3)C2c2cccc([N+](=O)[O-])c2)no1` (centres undefined)?
GIRK2 act: inactive

How did Cc1nc(-c2nnc(NC(=O)c3ccc4ncsc4c3)o2)cs1 do in these assays?
GIRK2 act: inactive

What do the screens show for `O=C(c1ccccc1Cl)N1CCC2(CC1)OCCCO2`?
GIRK2 act: inactive

Results for CCOc1ccc(S(=O)(=O)NCCOc2ccc(F)cc2)c(OCC)c1 ?
GIRK2 act: inactive

What do the screens show for `O=C(Cn1nc2c(N3CCOCC3)nccn2c1=O)Nc1cccc(C(F)(F)F)c1`?
GIRK2 act: inactive

How did CCOc1ccccc1N1CCN(S(=O)(=O)c2n[nH]c(C)c2C(=O)OC)CC1 do in these assays?
GIRK2 act: inactive

What do the screens show for `O=C1CCCN1c1ccc(Cn2cccc(-c3nc(-c4ccsc4)no3)c2=O)cc1`?
GIRK2 act: inactive

How did C/C=C/C(=O)Nc1ccc(-n2nnc(C(=O)N3CCCC3)n2)cc1 do in these assays?
GIRK2 act: inactive

How did O=C(Nc1ccc(F)cc1)N1CCC(Cn2ccnc2-c2ccccc2)CC1 do in these assays?
GIRK2 act: inactive

What do the screens show for `CC(=O)c1ccc(NC(=O)Cn2cccc(S(=O)(=O)N3CCCC3)c2=O)cc1`?
GIRK2 act: inactive

How did CC(NC(=O)Cc1csc(Nc2ncccn2)n1)c1ccccc1 (centres undefined) do in these assays?
GIRK2 act: inactive

How did O=C(NCc1ccccn1)c1c2c(nn1C1CCS(=O)(=O)C1)CCC2 (centres undefined) do in these assays?
GIRK2 act: inactive

How did CCCS(=O)(=O)NCCNc1ccc(-n2cccc2)nn1 do in these assays?
GIRK2 act: inactive

Results for Cc1ncc([N+](=O)[O-])n1CC(O)CCl (centres undefined) ?
GIRK2 act: inactive

Results for CCOc1cc(Cl)c(S(=O)(=O)NCCCN(C)C)cc1Cl ?
GIRK2 act: inactive

How did Cc1nnsc1C(=O)Nc1ccc(-n2nnc(C(N)=O)n2)cc1 do in these assays?
GIRK2 act: inactive

What do the screens show for `COC1(CNC(=O)c2cc(C3CC3)on2)CCSC1` (centres undefined)?
GIRK2 act: inactive

Results for COc1ccc(OC)c(C2C(=C(O)c3ccncc3)C(=O)C(=O)N2CCCN(C)C)c1 (centres undefined) ?
GIRK2 act: inactive

How did COc1ccc(-c2cc3nc(C)cc(NCCCN(C)C)n3n2)cc1OC do in these assays?
GIRK2 act: inactive

What do the screens show for `Cc1cn(C)nc1C(=O)N(CCN1CCOCC1)c1nc2ccc(F)cc2s1`?
GIRK2 act: inactive

Results for Cc1nc(-c2ccccc2Cl)sc1CNC(=O)C1CCCO1 (centres undefined) ?
GIRK2 act: inactive

Results for Cc1ccc(-c2nsc3c(=O)n(CC(=O)NCc4ccccc4Cl)cnc23)cc1 ?
GIRK2 act: inactive

How did COc1ccc(-n2ccn(CC(=O)NCc3ccc(C)cc3)c(=O)c2=O)cc1OC do in these assays?
GIRK2 act: inactive

How did O=C1CC(NS(=O)(=O)c2c(F)cccc2F)CN1C1CC1 (centres undefined) do in these assays?
GIRK2 act: inactive

Results for O=S(=O)(NCC(O)c1ccoc1)C1CC1 (centres undefined) ?
GIRK2 act: inactive

What do the screens show for `Cc1cc(C)c(NC(=O)Cn2nc3c(N4CCCC(C)C4)nccn3c2=O)c(C)c1` (centres undefined)?
GIRK2 act: inactive

How did O=C(CSc1nnc2c(=O)n(Cc3ccc(F)cc3)ccn12)NCc1cccnc1 do in these assays?
GIRK2 act: inactive

How did O=C(NCCC1=CCCCC1)c1coc(NC(=O)C2CC2)n1 do in these assays?
GIRK2 act: inactive

How did Cc1cccc2sc(OC3CN(S(=O)(=O)c4ccc5c(c4)OCCO5)C3)nc12 do in these assays?
GIRK2 act: inactive

What do the screens show for `O=C(NCc1cccs1)N1CCC(Oc2nc3c(Cl)cccc3s2)CC1`?
GIRK2 act: inactive

Results for COc1ncccc1C(=O)OC1CN(c2nc3c(C)cccc3s2)C1 ?
GIRK2 act: inactive

How did Cc1cc(C)n(-c2ccnc(N3CCC(C(=O)NCCc4ccccn4)CC3)n2)n1 do in these assays?
GIRK2 act: inactive

Results for CSCC(C)(O)CNC(=O)C1CCC1 (centres undefined) ?
GIRK2 act: inactive

Results for CCN1CCCc2cc(CCNC(=O)C(=O)Nc3cc(C)cc(C)c3)ccc21 ?
GIRK2 act: inactive

Results for O=C1CCSCC(C(=O)NCCc2ccc(F)cc2)N1 (centres undefined) ?
GIRK2 act: inactive

How did COc1ccc(S(=O)(=O)NCCCn2ccnc2)cc1C(C)(C)C do in these assays?
GIRK2 act: inactive

How did CCN(CC)C(=O)Cn1cc(C(=O)C(=O)N2CCOCC2)c2ccccc21 do in these assays?
GIRK2 act: inactive

What do the screens show for `CCCn1c(C(=O)NCCCN2CCCC2=O)cc2c(=O)n(C)c(=O)n(C)c21`?
GIRK2 act: inactive

Results for COC(=O)N1CCc2c(sc(NC(=O)c3ccccc3)c2-c2nc3ccccc3s2)C1 ?
GIRK2 act: inactive

What do the screens show for `CCN1CCN(c2cc(C)nc3cc(-c4ccc(OC)c(OC)c4)nn23)CC1`?
GIRK2 act: inactive

What do the screens show for `Cc1cc(C)cc(N2C(=O)C3N=NN(c4ccc(Br)cc4)C3C2=O)c1` (centres undefined)?
GIRK2 act: inactive

How did Cc1cc(OCC(=O)Nc2cccc(C(F)(F)F)c2)nc(N2CCCCC2)n1 do in these assays?
GIRK2 act: inactive

Results for O=C(NCCn1ncccc1=O)c1cc2ccccc2oc1=O ?
GIRK2 act: inactive

What do the screens show for `Fc1ccc(-c2nn3ccccc3c2-c2ccncc2)cc1`?
GIRK2 act: inactive

What do the screens show for `C=CCOc1ccc(C2C(=C(O)c3ccc(OC)cc3)C(=O)C(=O)N2c2cc(C)on2)cc1` (centres undefined)?
GIRK2 act: inactive

Results for COc1ccc(OC)c(NC(=O)CCCn2nnc3ccccc3c2=O)c1 ?
GIRK2 act: inactive

How did CCOc1cc(C)ccc1S(=O)(=O)NC1CC(C)(C)NC(C)(C)C1 do in these assays?
GIRK2 act: inactive

How did Cc1cc(C)c(C)c(S(=O)(=O)NCC(=O)NCc2ccco2)c1C do in these assays?
GIRK2 act: inactive

How did Cn1c(=O)[nH]c(=O)c2c1nc(N1CCC(C(N)=O)CC1)n2CCCc1ccccc1 do in these assays?
GIRK2 act: inactive

Results for COC(=O)c1c(NC(=O)CC2SC(N3CCOCC3)=NC2=O)sc(C)c1C (centres undefined) ?
GIRK2 act: inactive

How did COc1ccc(OC)c(-c2cc(C(=O)NCCN3CCN(C(=O)c4cccs4)CC3)[nH]n2)c1 do in these assays?
GIRK2 act: inactive

What do the screens show for `O=C(COc1ccc(Cl)cc1Cl)NCC1CCS(=O)(=O)C1` (centres undefined)?
GIRK2 act: inactive

What do the screens show for `O=C(NCc1ccc(F)c(Cl)c1)C1CCCN(c2nc3c(-c4ccccc4)csc3c(=O)[nH]2)C1` (centres undefined)?
GIRK2 act: inactive

Results for CCC(C)NC(=O)Cn1cc(-c2nc(C)no2)ccc1=O (centres undefined) ?
GIRK2 act: inactive

What do the screens show for `COc1cccc(S(=O)(=O)Nc2ccc(C(=O)NCCc3ccccc3)cc2)c1`?
GIRK2 act: inactive

What do the screens show for `Cn1nnnc1SCC(=O)N1CCC(Oc2cnccn2)CC1`?
GIRK2 act: inactive

How did O=S(=O)(NCCN1CCN(c2ccc(F)cc2)CC1)c1ccc(Cl)s1 do in these assays?
GIRK2 act: inactive

How did C=CCOC(=O)C1=C(C)NC(=O)NC1c1ccc(O)c(OC)c1 (centres undefined) do in these assays?
GIRK2 act: inactive

How did O=C(O)C1CCCCC1C(=O)Nc1ccc(Cl)cc1 (centres undefined) do in these assays?
GIRK2 act: inactive

What do the screens show for `O=C(Nc1ccc(Cl)cc1)N1CCC(Cn2ccnc2)CC1`?
GIRK2 act: inactive

How did O=C1CC(c2noc(-c3cc(C4CC4)[nH]n3)n2)CN1Cc1cccs1 (centres undefined) do in these assays?
GIRK2 act: inactive

What do the screens show for `C=C(CC[C@@H](C)[C@H]1CCC2(C)C3=C(C[C@H](O)[C@]12C)[C@@]1(C)CC[C@@H](OC(=O)CC(=O)O)C(C)(C)C1CC3)[C@@H](C)C(=O)O` (some centres undefined)?
GIRK2 act: inactive

Results for C/C(Cl)=C/Cn1c(SCC(=O)c2ccc(Br)cc2)nc2c1c(=O)[nH]c(=O)n2C ?
GIRK2 act: inactive

Results for O=C(CN1CCN(c2cccc(Cl)c2)C1=O)N1CCN(c2ccccc2Cl)CC1 ?
GIRK2 act: inactive

What do the screens show for `O=C(NCCCn1ncccc1=O)c1ccc(C(F)(F)F)cc1`?
GIRK2 act: inactive

How did Cc1ccc(-c2noc(-c3cccn(CC(=O)Nc4ccc(Br)cc4)c3=O)n2)cc1 do in these assays?
GIRK2 act: inactive

What do the screens show for `Cc1ccc(C)c(S(=O)(=O)NCC#CCOc2ccc3c(c2)OCO3)c1`?
GIRK2 act: inactive

How did COc1ccc(-c2noc(CSc3nc4ccccc4c(=O)n3Cc3cccs3)n2)cc1OC do in these assays?
GIRK2 act: inactive

Results for O=S(=O)(NCC#CCOc1ccc2c(c1)OCO2)c1ccccc1F ?
GIRK2 act: inactive

Results for Cc1cc(C(=O)OC2CN(c3nc4ccc(F)cc4s3)C2)no1 ?
GIRK2 act: inactive

How did COc1ccc2c(=O)c3c(oc2c1)C(=O)N(c1nccs1)C3c1cccc([N+](=O)[O-])c1 (centres undefined) do in these assays?
GIRK2 act: inactive

Results for Cc1ccc(-c2ccc(=O)n(Cc3nc(-c4cccc(Br)c4)no3)n2)cc1 ?
GIRK2 act: inactive

What do the screens show for `O=C(CN1CCN(Cc2nc(-c3ccco3)cs2)CC1)Nc1cccc(Cl)c1`?
GIRK2 act: inactive

How did CCCc1nnsc1C(=O)Nc1ccc(-n2ccnc2)nc1 do in these assays?
GIRK2 act: inactive

What do the screens show for `O=C(Cc1ccc(NC(=O)NCc2ccc(F)cc2)cc1)NC1CC1`?
GIRK2 act: inactive

How did COc1ccc(N2CCN(c3nc4c(c(=O)[nH]c(=O)n4C)n3Cc3ccccc3)CC2)cc1 do in these assays?
GIRK2 act: inactive

How did O=C(N1CCC(Cn2ccnc2)CC1)C1(c2ccc(Cl)cc2)CCCC1 do in these assays?
GIRK2 act: inactive

How did COc1ccc(/C=C/C(=O)NCCC(O)c2ccoc2)cc1OC (centres undefined) do in these assays?
GIRK2 act: inactive

How did COc1cccc2cc(C(=O)Nc3cc(N4CCOCC4)ncn3)oc12 do in these assays?
GIRK2 act: inactive

What do the screens show for `Cc1nc(-n2cccc2)sc1C(=O)NC1CNC(=O)C1` (centres undefined)?
GIRK2 act: inactive

What do the screens show for `Cn1ccnc1SCC1CCN(C(=O)CSCc2ccccc2)CC1`?
GIRK2 act: inactive

What do the screens show for `COc1ccc(CC(C)(O)CNC(=O)C(=O)Nc2ccc(F)c(Cl)c2)cc1` (centres undefined)?
GIRK2 act: inactive

Results for Cc1ccc(C)c2sc(N(C)CC(=O)Nc3nc(CC(N)=O)cs3)nc12 ?
GIRK2 act: inactive

How did Cc1csc(C(=O)Nc2ccc(-n3nnc(C(=O)N4CCCC4)n3)cc2)c1 do in these assays?
GIRK2 act: inactive

How did COc1cccc(/C=C2\Oc3cc(OC(=O)N4CCOCC4)ccc3C2=O)c1OC do in these assays?
GIRK2 act: inactive

What do the screens show for `Cc1ccc(N2CCN(CC(=O)NC3CC(C)CC(C)(C)C3)C2=O)cc1` (centres undefined)?
GIRK2 act: inactive

How did CS(=O)(=O)N1CCC(C(=O)Nc2ccccc2NC(=O)c2ccccc2F)CC1 do in these assays?
GIRK2 act: inactive

What do the screens show for `O=C(Nc1ccccc1)OC1CCCC(NC(=O)C2(c3cccs3)CCCC2)C1` (centres undefined)?
GIRK2 act: inactive

Results for Cc1nc(C)c(-c2ccc(=O)n(CCNC(=O)c3ccc(F)cc3F)n2)s1 ?
GIRK2 act: inactive

What do the screens show for `COc1ccc(S(=O)(=O)Nc2ccc(Nc3ccc(C)nn3)cc2)cc1Cl`?
GIRK2 act: inactive

What do the screens show for `COc1ccc(-c2noc(C3CCN(CC(=O)NCc4ccco4)CC3)n2)cc1`?
GIRK2 act: inactive

Results for COCCCNC(=O)CSc1nc2ccc(N3CCCCC3)cc2c(=O)n1Cc1ccccc1 ?
GIRK2 act: inactive

What do the screens show for `CCC(C(=O)NCCC(O)C1CC1)c1ccccc1` (centres undefined)?
GIRK2 act: inactive

What do the screens show for `O=C(CN=C(c1ccccc1)c1ccccc1)OCc1ccccc1`?
GIRK2 act: inactive

What do the screens show for `O=C(NCCN1CCN(c2ccccc2F)CC1)c1cnc2ccccc2n1`?
GIRK2 act: inactive
